T cruzi inh: blocks replication of Trypanosoma cruzi; T. cruzi beta-gal in NIH3T3, luminescence, 90 h; inhibition, % (concentration not given with the values); 300,000 tested, 1.4% active; AID 1885;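 active means mean inhibition across valid replicates above about 55%, limit read from the data; inconclusive means mean below that limit but half or more replicates reach it; inactive means mean below it, under half of replicates reach it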;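 further: signal also drops with host cell toxicity which is not excluded here; 0% = plate median of DMSO wells and 100% = zero luminescence signal; higher percent means less beta-gal luminescence so fewer parasites; stock transfer was 50 nL into about 50 µL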
FGF22 binding: binders of recombinant human FGF22 by thermal shift. calls only at 9.99 µM. 340,000 tested, 1.5% active. Q9HCT0. SYPRO orange fluorescence; percent of sucrose octasulfate shift, DMSO zero;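 active means melting point raised past a set limit in the mean and every replicate; inconclusive means no clear call; three in four hits are not shown here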
Target sequence (Q9HCT0 whole entry, looked up): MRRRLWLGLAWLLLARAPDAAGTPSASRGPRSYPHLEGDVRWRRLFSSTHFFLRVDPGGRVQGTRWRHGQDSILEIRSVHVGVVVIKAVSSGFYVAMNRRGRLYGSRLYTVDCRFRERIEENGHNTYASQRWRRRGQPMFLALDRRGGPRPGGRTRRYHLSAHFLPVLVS
AF4-AF9 inh: blocks AF4 peptide binding to human AF9; P42568; AlphaScreen, biotin-AF4 peptide binding to FLAG-AF9; inhibition, % at 10 µM; 350,000 tested, 0.47% active;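 active means every replicate reaching a set inhibition limit, whatever the replicate mean, cut at about 25% in these data; inconclusive means mean inhibition reaches that limit but some replicates miss it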;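 further: 0% = plate neutral control median and 100% = total signal loss; the record names both 10 and 1 µM as test concentration; the first replicate is given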
Target sequence (P42568 whole entry, looked up): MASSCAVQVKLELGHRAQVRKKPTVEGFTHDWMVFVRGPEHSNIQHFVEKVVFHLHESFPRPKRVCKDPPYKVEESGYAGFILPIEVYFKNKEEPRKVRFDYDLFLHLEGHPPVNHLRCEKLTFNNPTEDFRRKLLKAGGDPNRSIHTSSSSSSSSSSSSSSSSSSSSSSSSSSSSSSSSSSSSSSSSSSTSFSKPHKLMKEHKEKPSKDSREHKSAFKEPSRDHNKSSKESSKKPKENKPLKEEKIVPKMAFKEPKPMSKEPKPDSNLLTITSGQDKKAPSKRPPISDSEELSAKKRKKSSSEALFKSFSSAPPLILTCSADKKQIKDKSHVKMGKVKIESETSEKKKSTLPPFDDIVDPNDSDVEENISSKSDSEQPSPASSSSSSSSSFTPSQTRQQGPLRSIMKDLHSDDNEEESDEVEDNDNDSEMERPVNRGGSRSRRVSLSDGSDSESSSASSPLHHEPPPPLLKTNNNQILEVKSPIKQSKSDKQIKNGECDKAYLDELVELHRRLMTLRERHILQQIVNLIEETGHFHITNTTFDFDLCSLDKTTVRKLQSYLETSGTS
ALR inh: inhibitors of human sulfhydryl oxidase ALR; P55789; purified ALR, DTT oxidation, H2O2 HRP-luminol luminescence; inhibition, % (no concentration beside the values); 290,000 tested, 3.8% active; AID 485317;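 active means mean and each replicate at 75% or more; inconclusive means only one of the two met; inactive means neither met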;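 further: stock transfer was 7.5 nL into about 7.5 µL; 0% = neutral wells and 100% = wells with inactivated enzyme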
Target sequence (P55789 whole entry, looked up): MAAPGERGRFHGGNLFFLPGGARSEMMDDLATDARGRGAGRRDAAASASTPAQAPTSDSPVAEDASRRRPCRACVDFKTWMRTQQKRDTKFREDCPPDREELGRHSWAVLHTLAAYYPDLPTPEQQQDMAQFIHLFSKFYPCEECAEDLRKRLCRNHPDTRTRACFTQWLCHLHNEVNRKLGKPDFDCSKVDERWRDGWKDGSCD
Calb FLC: C. albicans growth modulation with fluconazole; C. albicans CaCi-2 (fluconazole-resistant clinical isolate) + fluconazole, Alamar Blue growth, 48 h; growth inhibition, % (test concentration not listed); 300,000 tested, 0.57% active;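 active means most replicates above 75%; inconclusive means exactly half above 75%; inactive means most below 75%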;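 further: all wells also contain fluconazole at 8 µg/ml as a sub-toxic cotreatment; 0% = median of DMSO wells and 100% = median of geldanamycin control wells; wells of about 8 µL received 7.5 nL stock; the first replicate is given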
RanGTP-Impb inh: disruptors of Ran-importin-beta complex formation – biochemical, FRET, CFP-Ran, YFP-importin-beta, homogeneous, primary screen; 300,000 tested, 1.1% active; AID 2216; inhibition, % (concentration not given with the values); cell-free CFP-Ran/YFP-importin-beta FRET ratio;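 active means most replicates above 15%; inconclusive means exactly half above 15%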;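 further: 0% = DMSO wells and 100% = Ran loaded with GDP instead of GTP; wells of about 40 µL received 100 nL stock; the first replicate is given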
Beta apoptosis: beta cell apoptosis inhibition; INS-1E cytokine-induced death, ATP luminescence, 48 h; percent of positive-control rescue, neutral wells zero; protection from apoptosis, % (concentration not given with the values); 300,000 tested, 0.8% active;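 active means all replicates at 75% or more, or half of them and the mean; inconclusive means half reach 75% but not the mean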;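 further: 0% = cytokine-treated negative control wells and 100% = positive control rescue; higher means more ATP so stronger rescue from cytokine killing; wells of about 40 µL received 100 nL stock; the first replicate is given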
rRNA inh HTS: inhibitors of bacterial rRNA selective over humanized ribosomes. E. coli WT GFP vs humanized-ribosome RFP mutants, fluorescence, 24 h; hits give low values; DMSO median 0, no signal -100. GFP signal change (wild-type ribosome), % (no concentration beside the values). 350,000 tested, 1.6% active;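 active means significant combined selectivity score with lowered wild-type GFP, culture density cut under 30%, mutant RFP and density less affected; inactive means any of these conditions unmet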; further: one replicate is shown; some compounds called inactive have numbers as strong as hits
rRNA inh HTS OD600: further read-out of rRNA inh HTS, marked with its call; OD600 change, %; measured here: OD600 growth;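 optical density of the mix in the first replicate; 0 = DMSO median and -100 = no signal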
rRNA inh HTS RFP: further read-out of rRNA inh HTS, marked with its call; RFP signal change, %; measured here: RFP humanized mutant strains;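 first replicate; 0 = DMSO median and -100 = no signal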
Numbers without * were called inactive. Only part of the results is shown. The share of hits here may be higher or lower than overall.

CCC1(CC)C(=O)C2=C3C1[C@H](C(=O)OC)C=C(C(=O)OC)C[C@H]3[C@H]1C(=O)NC(=O)[C@H]1[C@H]2C (stereo partly drawn) was read as T cruzi inh -2, FGF22 binding inactive, AF4-AF9 inh 16, ALR inh 37, Calb FLC 1, RanGTP-Impb inh -5.3, Beta apoptosis -6, rRNA inh HTS 7, rRNA inh HTS OD600 3 and rRNA inh HTS RFP -0.3.
`O=C(COc1ccc(S(=O)(=O)N2CCCC2)cc1)NCCC1=CCCCC1` gave T cruzi inh 9, FGF22 binding inactive, AF4-AF9 inh -2.7, ALR inh -8, Calb FLC 10, RanGTP-Impb inh 1.0, Beta apoptosis 2, rRNA inh HTS -20*, rRNA inh HTS OD600 -5.7* and rRNA inh HTS RFP 0.7*.
`O=c1[nH]c(SCc2ccccc2)nnc1-c1ccccc1` gave T cruzi inh -14, ALR inh -6, Calb FLC 46, RanGTP-Impb inh 2.5, Beta apoptosis -4, rRNA inh HTS 2, rRNA inh HTS OD600 0 and rRNA inh HTS RFP 1.7.
O=C(Nc1ccccn1)c1ccc2c(=O)n3c(nc2c1)CCCCC3 was read as FGF22 binding inactive, AF4-AF9 inh -3.8, ALR inh -14, Beta apoptosis -6, rRNA inh HTS -4, rRNA inh HTS OD600 -6 and rRNA inh HTS RFP -3.7.
CC(=O)Nc1ccc(S(=O)(=O)N=S(C)C)cc1 was read as T cruzi inh -6, ALR inh -8, Calb FLC -3, RanGTP-Impb inh 2.8 and Beta apoptosis -4.
Screening CC(Sc1nnc(C2CC2)n1C1CC1)C(=O)N(C)Cc1cccc(F)c1 (stereo not drawn) returned FGF22 binding inactive, AF4-AF9 inh -1.2, ALR inh -1, Beta apoptosis -13, rRNA inh HTS -1, rRNA inh HTS OD600 0 and rRNA inh HTS RFP -0.5.
Screening COc1ccc(C2C3=C(CC(C)(C)CC3=O)Oc3ncn(Cc4ccco4)c(=N)c32)cc1 (stereo not drawn) returned T cruzi inh 34, ALR inh 4, Calb FLC -1, RanGTP-Impb inh 7.9 and Beta apoptosis 4.
`COc1ccc(-c2ccc(-c3noc(-c4ccco4)n3)c(OC)n2)cc1` gave T cruzi inh -13, ALR inh -7, Calb FLC -2, RanGTP-Impb inh 11 and Beta apoptosis -1.
`CC1CN(S(=O)(=O)c2ccc(C(=O)OCc3ccc(C#N)cc3)cc2)CC(C)O1` (stereo not drawn) gave FGF22 binding inactive, AF4-AF9 inh 0.0, ALR inh -6, Beta apoptosis 1, rRNA inh HTS 6, rRNA inh HTS OD600 4 and rRNA inh HTS RFP 0.4.
For NC(=O)c1ccc(-n2nnnc2SCC(=O)Nc2ccc(N3CCOCC3)c(Cl)c2)cc1 the results were T cruzi inh -5, ALR inh -17, Calb FLC 24, RanGTP-Impb inh 0.9 and Beta apoptosis -1.
CCCc1[nH]nc2c1C1(C(=O)N(CC)c3ccccc31)C(C#N)=C(N)O2 (stereo not drawn) was read as T cruzi inh -9, FGF22 binding inactive, AF4-AF9 inh 1.1, ALR inh -28, Calb FLC -12, RanGTP-Impb inh 2.7, Beta apoptosis 1, rRNA inh HTS -5, rRNA inh HTS OD600 -2 and rRNA inh HTS RFP -7.4.
For C=CCn1c(C)cc(C(=O)CSc2ccc(NC(C)=O)cc2)c1C the results were T cruzi inh 13, ALR inh 98*, Calb FLC -19, RanGTP-Impb inh -1.1 and Beta apoptosis -2.
Screening CCn1c(N)c(C(=O)NCCCOC)sc1=S returned T cruzi inh -6, ALR inh 99*, Calb FLC -2, RanGTP-Impb inh 0.0 and Beta apoptosis -3.
`Cc1c(O)cc2n(c1=O)-c1ccc(Cl)cc1C2(C)C` gave T cruzi inh 6, ALR inh -2, Calb FLC 109*, RanGTP-Impb inh 0.5 and Beta apoptosis 0.
Screening CCc1ccccc1NS(=O)(=O)c1ccc(SC)cc1 returned T cruzi inh 2, ALR inh -8, Calb FLC 5, RanGTP-Impb inh 1.7 and Beta apoptosis 2.
For COc1ccc(N(C)S(=O)(=O)c2cccc(C(=O)NC3CCCCCC3)c2)cc1 the results were T cruzi inh -8, FGF22 binding inactive, AF4-AF9 inh -1.7, ALR inh 39, Calb FLC 11, RanGTP-Impb inh 8.1, Beta apoptosis 5, rRNA inh HTS -20, rRNA inh HTS OD600 -34 and rRNA inh HTS RFP -12.
NC(=O)Nc1ccc(C(=O)OCC(=O)N2CCc3ccccc3C2)cc1 was read as FGF22 binding inactive, AF4-AF9 inh -10, ALR inh -2, Beta apoptosis -9, rRNA inh HTS 4, rRNA inh HTS OD600 12 and rRNA inh HTS RFP -2.5.
COc1ccc(CNC(=O)CSc2nnc(C(F)(F)F)n2C)cc1 was read as T cruzi inh -7, FGF22 binding inactive, AF4-AF9 inh -3.3, ALR inh -1, Calb FLC 12, RanGTP-Impb inh 3.1, Beta apoptosis -7, rRNA inh HTS 24, rRNA inh HTS OD600 26 and rRNA inh HTS RFP 1.3.
`Cc1ccccc1Nc1nc(N)nc(CSc2nnc(-c3ccccc3)n2C)n1` gave T cruzi inh 2, ALR inh -4, Calb FLC -6, RanGTP-Impb inh inconclusive and Beta apoptosis 4.
For CCOC(=O)C1CCN(C(=O)Nc2ccc3nccnc3c2)CC1 the results were T cruzi inh -1, ALR inh -21, Calb FLC 28, RanGTP-Impb inh -1.2 and Beta apoptosis -1.
O=C(c1ccco1)N1N=C(c2ccc(Br)cc2)CC1(O)C(F)(F)F (stereo not drawn) was read as T cruzi inh 12, FGF22 binding inactive, AF4-AF9 inh -2.0, ALR inh -3, Calb FLC -5, RanGTP-Impb inh 4.2, rRNA inh HTS 17, rRNA inh HTS OD600 16 and rRNA inh HTS RFP 2.2.
`COc1cccc(C2CC(c3ccc(C)cc3)n3ncnc3N2)c1` (stereo not drawn) gave T cruzi inh 13, FGF22 binding inactive, AF4-AF9 inh 0.2, ALR inh -7, Calb FLC -2, RanGTP-Impb inh 2.8, Beta apoptosis -1, rRNA inh HTS 6, rRNA inh HTS OD600 -3 and rRNA inh HTS RFP 2.8.
O=C(O)c1cc(S(=O)(=O)N2CCN(C(=O)c3ccco3)CC2)c(Cl)cc1Cl was read as T cruzi inh -11, FGF22 binding inactive, AF4-AF9 inh -0.3, ALR inh -5, Calb FLC 8, RanGTP-Impb inh 0.5, Beta apoptosis -2, rRNA inh HTS 6, rRNA inh HTS OD600 11 and rRNA inh HTS RFP -4.3.
For CNc1nc(OCC(F)(F)F)nc(OCC(F)(F)F)n1 the results were T cruzi inh -9, FGF22 binding inactive, AF4-AF9 inh 6.6, ALR inh -3, Calb FLC 2, RanGTP-Impb inh -6.1, Beta apoptosis -3, rRNA inh HTS 0, rRNA inh HTS OD600 -2 and rRNA inh HTS RFP 3.1.
[O-][n+]1c2c(nn1-c1ccccc1Cl)-c1nonc1CC2 was read as T cruzi inh -5, ALR inh -2, Calb FLC 14, RanGTP-Impb inh -3.0, Beta apoptosis -6, rRNA inh HTS 16, rRNA inh HTS OD600 11 and rRNA inh HTS RFP 1.7.
For Cc1cnc(C(=O)OC(C(=O)Nc2cc(C(F)(F)F)ccc2Cl)c2ccccc2)cn1 (stereo not drawn) the results were T cruzi inh 0, FGF22 binding inactive, AF4-AF9 inh 0.2, ALR inh 7, Calb FLC 14, RanGTP-Impb inh -3.1, Beta apoptosis -2, rRNA inh HTS -2, rRNA inh HTS OD600 2 and rRNA inh HTS RFP -2.8.
`Cc1cc(C)cc(C(=O)NCCn2cc(SCC(=O)N3CCOCC3)c3ccccc32)c1` gave T cruzi inh -5, FGF22 binding inactive, AF4-AF9 inh -5.3, ALR inh 45, Calb FLC -5, RanGTP-Impb inh -0.7, Beta apoptosis 3, rRNA inh HTS -13, rRNA inh HTS OD600 -13 and rRNA inh HTS RFP 0.3.
Screening O=C(CSc1ccccc1)N1CCCC(Nc2ccccc2)C1 (stereo not drawn) returned T cruzi inh 9, FGF22 binding inactive, AF4-AF9 inh 2.8, ALR inh 66, Calb FLC 11, RanGTP-Impb inh 0.0, Beta apoptosis 6, rRNA inh HTS -6, rRNA inh HTS OD600 -22 and rRNA inh HTS RFP -2.9.
For CC1(C)CNC(=O)CC(C)(C)N1 the results were T cruzi inh -16, FGF22 binding inactive, AF4-AF9 inh -2.9, ALR inh -6, Calb FLC -7, RanGTP-Impb inh 5.2, Beta apoptosis -5, rRNA inh HTS 9, rRNA inh HTS OD600 0 and rRNA inh HTS RFP 2.3.
Screening COc1ccccc1/C=C\C=N\n1c(-c2ccc(Cl)cc2)n[nH]c1=S returned T cruzi inh -3, FGF22 binding inactive, AF4-AF9 inh 3.3, ALR inh 5, Calb FLC 17, RanGTP-Impb inh 2.5, Beta apoptosis 4, rRNA inh HTS 9, rRNA inh HTS OD600 9 and rRNA inh HTS RFP -0.7.
For CC(C)NS(=O)(=O)c1ccc2c(c1)NCC2 the results were T cruzi inh -1, FGF22 binding inactive, AF4-AF9 inh 1.2, ALR inh 99*, Calb FLC -3, RanGTP-Impb inh -1.7 and Beta apoptosis 5.
For O=C(N/N=C/c1ccc(OCc2ccc(F)cc2)cc1)c1ccccc1 the results were T cruzi inh -13, FGF22 binding inactive, AF4-AF9 inh -2.9, ALR inh 3, Calb FLC -33, RanGTP-Impb inh -3.6, Beta apoptosis -4, rRNA inh HTS 31, rRNA inh HTS OD600 25 and rRNA inh HTS RFP 2.1.
`CC(C)COc1ccc(C(=O)OCC(=O)NCc2cccs2)cc1` gave FGF22 binding inactive, AF4-AF9 inh -0.8, ALR inh 2, Beta apoptosis 4, rRNA inh HTS 12, rRNA inh HTS OD600 20 and rRNA inh HTS RFP 1.2.
`COc1ccc(N2CCN(C(=O)c3cc(C)on3)CC2)cc1` gave T cruzi inh -11, FGF22 binding inactive, AF4-AF9 inh -2.3, ALR inh 60, Calb FLC -4, RanGTP-Impb inh -1.8, rRNA inh HTS 13, rRNA inh HTS OD600 8 and rRNA inh HTS RFP 1.7.
`CCC(C)c1ccccc1OCCn1ccnc1` (stereo not drawn) gave T cruzi inh 20, ALR inh -26, Calb FLC -2, RanGTP-Impb inh -1.3 and Beta apoptosis -5.
`CCN(Cc1cc(=O)n2ccsc2n1)c1cccc2ccccc12` gave T cruzi inh 13, AF4-AF9 inh 3.1, ALR inh -14, Calb FLC 16, RanGTP-Impb inh 0.8, Beta apoptosis -10, rRNA inh HTS -16, rRNA inh HTS OD600 -43 and rRNA inh HTS RFP -13.
C=C1CCN(c2ccc(C(=O)O)cc2[N+](=O)[O-])CC1 was read as T cruzi inh 1, ALR inh 73, Calb FLC -14, RanGTP-Impb inh 3.8 and Beta apoptosis -1.
For CCc1ccc(-n2c(SCC(=O)Nc3cccc(S(=O)(=O)NC4=NCCCCC4)c3)nc3ccccc3c2=O)cc1 the results were T cruzi inh 19, FGF22 binding inactive, AF4-AF9 inh 3.0, ALR inh 9, Calb FLC 10, RanGTP-Impb inh -2.1, rRNA inh HTS 7, rRNA inh HTS OD600 6 and rRNA inh HTS RFP -3.5.
Screening O=C(NC1CCN(S(=O)(=O)c2ccc(F)cc2)CC1)c1ccccc1 returned T cruzi inh -9, FGF22 binding inactive, AF4-AF9 inh 0.6, ALR inh -20, Calb FLC -5, RanGTP-Impb inh inconclusive, Beta apoptosis -2, rRNA inh HTS 20, rRNA inh HTS OD600 9 and rRNA inh HTS RFP 1.4.

Source: PubChem
